Compound activity from PubChem.
A488 fluor = compound autofluorescence in A488 spectral region | compound autofluorescence, A488 spectral region, dye equivalency; active compounds read high | max dye equivalency, M | AID 591 | actives 0.1% (n = 59,000); active = above 10 nM dye equivalent; inconclusive = 1 to 10 nM; inactive = 1 nM or less; about half of its hits are not listed in these tables;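 note: highest value over a series up to 38 µM; compound alone in buffer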
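Intrinsic compound fluorescence is measured in 100 mM Tris buffer at pH 8.0 following 15 min incubation at room temperature. Intensities at 480 nm excitation/540 nm emission are calibrated to an on-plate A488 concentration series, giving dye-equivalent concentrations.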
AID923 = qHTS Assay for Allosteric/Competitive Inhibitors of Caspase-1: Spectroscopic Profiling in AFC Spectral Region; Potency, µM (doses to about 57.5 µM), for the others: top-dose fluorescence increase, most hits filed as activators; compound fluorescence, AFC spectral region (405/520 nm); almost no hit is shown here; actives 1.1% (n = 75,000); AID 923, 2007; active = well fitted activation curve with a large enough effect; inconclusive = small, poorly fitted or top-dose-only effect;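 note: potency is the fitted concentration of half-maximal effect; 0% is about no effect; scaled to a free AFC standard on each plate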
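Compound autofluorescence profiled at 405 nm ex/520 nm em during kinetic caspase 1 run (50 nM enzyme, 5 uM Ac-WEHD-AFC, HEPES pH 7.5, 10 mM DTT). Titration up to 57 uM; baseline from regression intercept, normalized to AFC standard curve.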
Resorufin fluor = resorufin region autofluorescence; Compound fluorescence, resorufin region 547/598 nm, buffer; active compounds read high; max dye-equivalent concentration, M; actives 0.04% (n = 59,000); active = above 10 nM dye equivalent; inconclusive = 1 to 10 nM; inactive = 1 nM or less; a few of its hits are not listed in these tables; note: highest value over a series up to 38 µM
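Read-out: intrinsic compound fluorescence at ex 547/em 598 nm after 15 min at RT in pH 8.0 Tris (100 mM). Values expressed as resorufin-equivalent concentration from per-plate standard series.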
TSHR ag = agonists of human thyroid stimulating hormone receptor. actives 0.48% (n = 73,000). HEK293-CNG-TSHR cells (CNG channel as cAMP sensor), membrane potential dye, cAMP. Potency, µM (doses to about 57.1 µM), without a hit: top-dose activation, actives largely listed as activators. AID 926; active = well fitted activation curve of enough size with the parental cells flat; inconclusive = any curve in the parental cells; inactive = parental cells flat and receptor cells flat or falling; note: potency is the fitted concentration of half-maximal effect; % of control where 0% means no effect; weak receptor curves with flat parental cells got no call and are not listed
Target sequence (P16473 whole entry, looked up): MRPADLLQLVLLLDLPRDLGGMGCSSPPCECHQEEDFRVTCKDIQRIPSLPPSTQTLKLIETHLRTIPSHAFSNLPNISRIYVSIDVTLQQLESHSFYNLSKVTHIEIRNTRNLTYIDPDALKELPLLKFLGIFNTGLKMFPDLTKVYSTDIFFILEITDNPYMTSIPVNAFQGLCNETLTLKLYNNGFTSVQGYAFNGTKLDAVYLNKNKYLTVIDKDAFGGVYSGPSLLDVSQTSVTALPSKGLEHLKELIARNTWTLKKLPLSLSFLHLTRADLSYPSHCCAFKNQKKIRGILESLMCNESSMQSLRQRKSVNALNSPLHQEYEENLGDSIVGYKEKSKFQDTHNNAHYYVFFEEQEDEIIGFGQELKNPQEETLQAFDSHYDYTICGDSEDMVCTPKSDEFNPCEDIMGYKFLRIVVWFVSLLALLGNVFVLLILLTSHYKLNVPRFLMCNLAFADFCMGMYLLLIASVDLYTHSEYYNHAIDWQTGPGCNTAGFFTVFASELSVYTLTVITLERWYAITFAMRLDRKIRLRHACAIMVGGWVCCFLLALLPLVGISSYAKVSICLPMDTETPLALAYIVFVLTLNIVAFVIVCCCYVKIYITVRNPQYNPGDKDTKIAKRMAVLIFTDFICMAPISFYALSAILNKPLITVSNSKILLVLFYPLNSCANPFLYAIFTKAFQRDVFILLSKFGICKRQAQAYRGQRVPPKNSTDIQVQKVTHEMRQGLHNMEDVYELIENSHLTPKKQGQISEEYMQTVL
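HEK 293 cells stably expressing TSHR and a modified CNG channel, with CNG-only parental cells as counterscreen, were preloaded 60 min at room temperature with membrane potential dye containing 100 uM RO 20-1724. Compound exposure was 30 min, and depolarization was read as fluorescence at 590 nm.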
A647 autofl = A647 region autofluorescence. Compound fluorescence, A647 channel (570/671 nm), Tris buffer. max dye-equivalent concentration, M. 59,000 tested, under 10 active. AID 592; active means above 1 µM dye equivalent; inconclusive means 0.1 to 1 µM; inactive means 0.1 µM or less;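 note: values scaled relative to a standard on each plate; highest value over a series up to 38 µM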
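Tris 100 mM pH 8.0; cpd + A647 stds pin-transferred; 15 min RT; CCD imager, ex 570/em 671. Output = A647-equivalent conc. per cpd conc.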
An asterisk follows results filed as active; i = inactive; ? = inconclusive; . = not tested or not shown; [ ] = remark or other dose. Only part of the results is shown; count on the stated rates, not on these rows.

SMILES	A488 fluor	AID923	Resorufin fluor	TSHR ag	A647 autofl
Brc1cnc(N2CCCC2)nc1N1CCCCC1	.	-0.7%	.	3%	.
Cn1c(CCN2CCOCC2)nc2cc(NC(=O)COc3ccccc3)ccc21	i	0.8%	i	10%	1.9e-09
Cc1nnc(SCC2CCCO2)n1-c1ccccc1 (configuration not stated)	i	1.1%	i	?	2.4e-08
O=C(O)C1CCCN1C(=O)Nc1ccc(F)cc1 (configuration not stated)	i	-3.0%	i	-3%	3e-09
CN(CC(O)COCc1cccs1)C1CCCCC1 (configuration not stated)	i	1.6%	i	4%	1e-09
Cc1ccc2cccc(SCC(=O)NCc3ccco3)c2n1	i	-0.2%	i	10%	7.7e-09
CCOC(=O)c1cnc(SC2CC(=O)N(c3ccc(OC)c(OC)c3)C2=O)nc1N (configuration not stated)	i	-1.9%	i	0%	1e-09
O=C(CNC(=O)c1ccc(Br)o1)Nc1cccc(-c2cnc3ccccc3n2)c1	i	-1.9%	i	-11%	2.8e-09
Cc1cc(C)n(CCCNC(=O)c2ccc(S(=O)(=O)NCc3ccco3)cc2)n1	i	-0.1%	i	-2%	1e-09
CCOC(=O)c1ccc(NC(=O)CSc2nnc(COc3ccccc3OC)n2C)cc1	i	0.6%	i	-6%	1.8e-08
CCOC(=O)C1CCN(c2ncnc3c2oc2ccccc23)CC1	i	-0.4%	i	?	2e-09
CC(=O)Nc1ccc2c(c1)/C(=C/c1ccc([N+](C)(C)C)cc1)c1ccccc1-2	i	-0.6%[11.5 µM]	i	-4%[11.4 µM]	1.8e-08

Next section, overlapping the part above by 5 compounds.
SMILES	A488 fluor	AID923	Resorufin fluor	TSHR ag	A647 autofl
O=C(CNC(=O)c1ccc(Br)o1)Nc1cccc(-c2cnc3ccccc3n2)c1	i	-1.9%	i	-11%	2.8e-09
Cc1cc(C)n(CCCNC(=O)c2ccc(S(=O)(=O)NCc3ccco3)cc2)n1	i	-0.1%	i	-2%	1e-09
CCOC(=O)c1ccc(NC(=O)CSc2nnc(COc3ccccc3OC)n2C)cc1	i	0.6%	i	-6%	1.8e-08
CCOC(=O)C1CCN(c2ncnc3c2oc2ccccc23)CC1	i	-0.4%	i	?	2e-09
CC(=O)Nc1ccc2c(c1)/C(=C/c1ccc([N+](C)(C)C)cc1)c1ccccc1-2	i	-0.6%[11.5 µM]	i	-4%[11.4 µM]	1.8e-08
CN(C)c1nc(Oc2ccc(=O)n(C)n2)nc(N2CCOCC2)n1	i	-1.8%	i	4%	2.1e-08
CCC(Sc1nc(=O)cc(N)n1CCc1ccccc1)C(=O)Nc1cc(C)on1 (configuration not stated)	.	-1.9%	.	6%	.
COc1cc(NC(=O)C2CCCN2S(=O)(=O)c2ccc3c(c2)CCC(=O)N3)cc(OC)c1 (configuration not stated)	.	0.2%	.	4%	.
CCCc1nnc(NC(=O)CN2C(=O)c3ccccc3S2(=O)=O)s1	i	1.1%	i	10%	2.3e-08
COc1ccc(N2C(=O)CC(N3CCN(c4nc5ccccc5s4)CC3)C2=O)cc1 (configuration not stated)	i	-1.7%	i	11%	1.2e-09
Cc1nnc(SCC(=O)NCc2ccccc2)s1	.	2.7%	.	-4%	.
O=C(CC(Nc1ccc(F)cc1)C(=O)O)c1ccccc1 (configuration not stated)	i	-0.4%	i	5%	2.4e-09
CS[C@]12C(=O)C[C@]3(C)[C@@H](CC[C@@]3(O)C(=O)CO)[C@@H]1CCC1=CC(=O)CC[C@]12C	i	0.5%[11.5 µM]	i	-4%[11.4 µM]	1.8e-09
CCS(=O)(=O)n1nc(NCc2cccc(OC)c2)nc1NCc1cccc(OC)c1	i	-0.1%	i	?	1e-09
Cc1cc(/C=N/n2cnnc2)c(C)n1-c1ccc(C(=O)O)cc1	.	-2.1%	.	?	.
O=C(CN1CCOCC1)N(c1ccccc1)c1ccc2ccccc2c1	i	0.9%	i	7%	5.6e-08
O=C(Cc1ccc(-n2cnnn2)cc1)NC12CC3CC(CC(C3)C1)C2	i	0.2%	i	14%	3.5e-09
CC1=CC2=NC(=O)CC(C)(C(=O)N(CC(=O)NC(C)(C)C)C3CCCC3)N2C=C1 (configuration not stated)	i	1.4%	i	?	3.1e-09
Cc1nc(NC(=O)CSc2nnnn2Cc2ccccc2)sc1C	i	-2.9%	i	?	2.6e-08
CCOc1cc(C2NC(=O)NC(C)=C2C(=O)OCc2ccccc2)ccc1O (configuration not stated)	i	-2.4%	i	8%	1e-09
CCOC(=O)CSc1nnc(CNC(=O)c2ccc(OC)cc2)n1Cc1ccccc1	i	1.3%	i	3%	3.4e-09
CCCC(=O)NCCCc1nc2ccccc2[nH]1	.	0.6%	.	13%	.
CCn1c2ccccc2c2cc(/C=N/n3cnnc3)ccc21	i	15%	i	.	1e-09
CC(C)Sc1nnc(NC(=O)C2CC2)s1	.	1.1%	.	0%	.
Cc1nnc2sc(-c3cc4ccccc4o3)nn12	i	-0.6%	i	-8%	8.1e-09
Clc1ccccc1-c1nc(NCc2cccs2)c2ccccc2n1	i	2.7%	i	?	1e-09
CCc1c(C)c2nncn2[nH]c1=O	i	-1.7%	i	12%	2.1e-08
Cc1cccn2c(=O)c3cc(C(=O)N4CCc5ccccc5C4)n(C)c3nc12	i	6.1%	i	16%	2e-09
COc1ccccc1C1CC(=O)NC(C)=C1C(=O)OCC(C)C (configuration not stated)	i	-0.2%	i	-1%	4.9e-08
Cc1c(CN(C)C)c2c(n1C)C(=O)c1ccc(Br)cc1-2	i	-3.2%	i	-20%	7.5e-09
CCOC(=O)Cc1csc(NC(=O)CSc2nnc(Cc3csc(N)n3)n2C)n1	i	0.7%	i	-51%	7.8e-08
O=C(CCn1[nH]c(=O)c2ccccc2c1=O)NCCO	.	2.2%	.	-6%	.
C=CCn1c(=O)c2c(nc(-c3ccc(S(=O)(=O)O)cc3)n2C)n(C)c1=O	i	1.1%	i	1%	1.2e-08
O=C(CN1CCN(c2ccc(Cl)cc2)CC1)Nc1cccc(F)c1	i	0.0%	i	?	2.5e-08
COc1ccc(-c2nnc(SCc3cc(C)cc(C)c3)o2)cc1	i	-0.4%	i	?	2.1e-08
O=C(COC(=O)c1ccc2c(c1)OCCO2)NCCC1=CCCCC1	i	-1.2%	i	?	1e-09
C=C(C)Cn1c(=O)c(NC(=O)c2ccccc2)c2n(c1=S)CCC2	i	0.3%	i	2%	5.6e-09
CCOC(=O)C1CCCN(CC(=O)NC2=Nc3ccccc3N=C(C)C2c2ccccc2)C1 (configuration not stated)	i	-1.4%	i	25µM*	4e-09
N[C@H]1CCN(O)C1=O	.	2.3%	.	9%	.
CCn1c(SCC(=O)N2CCN(c3ccccc3)CC2)nnc1-c1ccoc1C	i	1.8%	i	21%	1e-09
O=C(CSc1nnc(-c2cccs2)o1)OC1CCCCC1	i	0.1%	i	1%	1.8e-08
CC1=CCC(C(=O)O)C(C(=O)O)C1 (configuration not stated)	.	2.3%	.	-1%[11.4 µM]	.
COC(=O)c1ccc(Cn2nnc3c(sc4nc(N5CCOCC5)c5c(c43)CCCC5)c2=O)o1	i	.	i	.	1e-09
O=C(Nc1ccc(Cc2ccncc2)cc1)c1ccco1	.	1.5%	.	-5%	.
CCOC(=O)c1cnc(-n2cc(C)cn2)nc1NCc1ccc2c(c1)OCO2	i	-1.5%	i	?	1.2e-08
CCOC(=O)c1cnn(-c2ncnc3sc(C)c(C)c23)c1N	.	1.3%	.	-1%	.
O=C(CN1C(=O)CSC1=O)NCc1ccccc1	i	0.5%	i	4%	1e-09
CCOc1ccccc1NC(=O)c1ccccc1NS(C)(=O)=O	i	-0.8%	i	7%	2e-08
CCOc1ccc(Cl)cc1S(=O)(=O)n1cnc2ccccc21	i	-0.6%	i	.	1.3e-08
Cc1ccc2c(c1)nnn2C1CCN(S(=O)(=O)c2ccc(C(=O)N(C)C)cc2)CC1	i	-0.8%	i	7%	1e-09
COCc1cc(=O)n2c(-c3ccc(C)cc3)n[nH]c2n1	.	4.3%	.	-4%[11.4 µM]	.
CCn1c(N2CCC(Cc3ccccc3)CC2)nc2c1c(=O)[nH]c(=O)n2C	i	0.9%	i	9%	1.9e-08
Cc1ccc(OC(=O)C(F)(F)F)c2c1NCCC2	.	-1.0%	.	-2%	.

Taken from the entries so far, 4 compounds:
SMILES	A488 fluor	AID923	Resorufin fluor	TSHR ag	A647 autofl
CC1=CCC(C(=O)O)C(C(=O)O)C1 (configuration not stated)	.	2.3%	.	-1%[11.4 µM]	.
COC(=O)c1ccc(Cn2nnc3c(sc4nc(N5CCOCC5)c5c(c43)CCCC5)c2=O)o1	i	.	i	.	1e-09
O=C(Nc1ccc(Cc2ccncc2)cc1)c1ccco1	.	1.5%	.	-5%	.
CCOC(=O)c1cnc(-n2cc(C)cn2)nc1NCc1ccc2c(c1)OCO2	i	-1.5%	i	?	1.2e-08

Following part:
SMILES	A488 fluor	AID923	Resorufin fluor	TSHR ag	A647 autofl
Cc1nc2ccc(Cl)cc2nc(C)/c1=N\O	?	0.6%	i	-8%	1.1e-08
C=CCN=C(C)C1=C(O)CCC1=O	i	.	i	.	1.1e-09
O=C(c1ccc(C(F)(F)F)cc1)N1CCCCC1	i	1.0%	i	?	1e-09
CCOC(=O)N1CCC(n2c(SCC(=O)NCc3ccco3)nc3ccsc3c2=O)CC1	i	-0.3%	i	3%	8.9e-09
CCN(CC)CCCOc1nc(C)nc2c1oc1ccccc12	i	4.5%	i	6%	1e-09
CCCCN1C(=O)NC(NC(C)=O)(C(F)(F)F)C1=O (configuration not stated)	i	0.4%	i	3%	1e-09
COCCNC(=O)COC(=O)CSCc1nc2ccccc2s1	i	3.5%	i	13%	1e-09
O=C(c1cc(-c2ccncc2)nc2ccccc12)N1CCN(c2ccccn2)CC1	i	0.2%	i	18%	3.8e-08
CNS(=O)(=O)c1cc(OC)ccc1OC	i	-2.0%	i	-5%	2.1e-08
O=C(NCc1ccccc1)C1CCN(S(=O)(=O)N2CCOCC2)CC1	i	-0.4%	i	0%	6.7e-09
Cc1noc(C)c1C(=O)N1CCC2(CC1)CN(c1ccccn1)C2	i	1.1%	i	-5%	1e-09
O=C1NCCCN1Cc1ccc(F)cc1Cl	i	-1.2%	i	7%	3.1e-09
CC1(C)CC(=O)C(Sc2nnc(-c3ccc(O)cc3)n2CC2CCCO2)C(=O)C1 (configuration not stated)	i	-1.8%	i	-1%	4.9e-09
Cc1cc(C)n(-c2cc(N3CCOCC3)ncn2)n1	.	1.7%	.	-11%	.
CCN(C(=O)COC(=O)c1cccnc1SC)C1CCS(=O)(=O)C1 (configuration not stated)	i	0.8%	i	3%	4.8e-09
COC(=O)[C@@H](NC(=O)N1CCN(c2cccc(C(F)(F)F)c2)CC1)C(C)C	i	-0.7%	i	3%	1e-09
CC1CCCCC1NC(=O)CCn1c(=O)oc2ccccc21 (configuration not stated)	i	-1.4%	i	6%	8.5e-09
CC(Sc1ccc2c(c1)OCCO2)C(=O)Nc1ccc2c(c1)OCO2 (configuration not stated)	i	-0.5%	i	?	1e-09
COc1ncc2nc(C)c(=O)n(CCc3ccccc3)c2n1	i	-0.2%	i	?	2.2e-08
COc1ccc(Nc2ccnc3ccccc23)cc1	i	-2.8%	i	13%[11.4 µM]	1e-09
CCOC(=O)c1cccc(NS(=O)(=O)c2cnc[nH]2)c1	i	2.9%	i	-4%	1e-09
O=S(=O)(c1ccccc1)c1nc(-c2ccco2)oc1N1CCCCCC1	i	-0.5%	i	?	1e-09
CN(C(=O)COC(=O)C1c2ccccc2Oc2ccccc21)C1CCS(=O)(=O)C1 (configuration not stated)	i	2.0%	i	0%	2e-09
Cc1c(N=Cc2ccc[nH]2)c(=O)n(-c2ccccc2)n1C	.	1.6%	.	-6%	.
